Bioassay records from PubChem BioAssay.
CBX7 AlphaScr: CBX7 inhibition, primary AlphaScreen; O95931; AlphaScreen His6-CBX7 / biotin-H3K27me3 peptide binding; active compounds read low; normalised signal (fraction of DMSO) (test concentration not listed); hit rate 1.1% among 66,000; AID 1224903; in the data active = normalised signal below about 0.5;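 note: 100 nL library stock added to about 20 µL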
Target sequence (O95931 whole entry, looked up): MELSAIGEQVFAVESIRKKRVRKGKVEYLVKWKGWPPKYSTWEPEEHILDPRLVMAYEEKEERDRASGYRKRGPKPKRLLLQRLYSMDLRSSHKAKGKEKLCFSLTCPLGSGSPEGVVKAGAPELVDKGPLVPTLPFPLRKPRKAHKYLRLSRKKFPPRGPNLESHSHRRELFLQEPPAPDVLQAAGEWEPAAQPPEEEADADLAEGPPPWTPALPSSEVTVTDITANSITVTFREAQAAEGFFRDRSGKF
CBX7 AlphaScr z-score: further read-out of CBX7 AlphaScr, marked with its call; z-score; measured here: z-score of CBX7 signal; some inactives read as strong as hits; reference of the scale not given here;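 same signal on another scale; lower means less binding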
* hit, by the source's call; & = joins results of further samples. Not all compounds are listed, so the mix of outcomes need not match the whole.

SMILES	CBX7 AlphaScr	CBX7 AlphaScr z-score
Cc1cc(N2CC(C)CC(C)C2)nc2ccc(NC(=O)CCC(=O)N(C)C3CCCCC3)cc12 (stereo not drawn)	1	0.65
CCc1ccc2nc(N3CCC(C(=O)NCCCOC)CC3)sc2c1	0.96	-0.97
COc1ccc(-c2ccc(Cc3nc(-c4ccccn4)no3)cc2)cc1	1.1	0.61
COc1ccc(-c2cc3nc(C)c(CCC(=O)NC(C)c4ccccc4)c(C)n3n2)c(OC)c1 (stereo not drawn)	1.2	2.3
Cc1ccccc1NC(=O)Cn1cc(S(=O)(=O)c2ccc(F)cc2)c(=O)c2cc(Cl)ccc21	0.87	-2.1
CCOc1ccc(NC(=O)Cn2ccc3ccccc3c2=O)cc1	1.5	4.3
CC(C)c1ccc(NS(=O)(=O)c2ccc3[nH]c(=O)c(=O)[nH]c3c2)cc1	0.95	-2.4
COc1cc2c(cc1OC)C(c1ccccc1)CC(=O)N2 (stereo not drawn)	1	0.0096
c1ccc(-c2nc(Sc3ccccn3)c3oc4ccccc4c3n2)cc1	0.95	-0.76
CCOc1ccc(C2C(N3C(=O)c4ccccc4C3=O)C(=O)N2c2ccc(OC)c(Cl)c2)cc1 (stereo not drawn)	0.85	-5.2
COc1ccc(NC(=O)c2csc3c2CCCC3)cc1	1.1	2.7
COC(=O)c1c[nH]n2c(NCCc3ccccc3)c(-c3ccc(C)cc3)nc12	0.84	-3.2
O=C(NCC1(c2ccccc2)CCCC1)c1cc2ccccc2o1	1.1	1.9
Cc1cc(C)cc(N2CC(c3nc4ccccc4n3Cc3ccc(F)cc3)CC2=O)c1 (stereo not drawn)	0.91	-0.4
CCOc1ccc(S(=O)(=O)NCCc2c(C)[nH]c3c(C)cccc23)cc1	0.89	-3.8
Cc1ccn2c(NC(=O)c3cccc(Br)c3)c(-c3ccccc3)nc2c1	1	0.12
CC(C)OC(=O)c1nnn(-c2nonc2N)c1CN1CCN(c2ccc(F)cc2)CC1	0.96	-1
CCCNC(=O)c1cc(-c2ccc3c(c2)OCO3)on1	1.3	2.4
Cc1ccc(Nc2c(-c3ccc(N4CCOCC4)cc3)nc3sccn23)cc1C	0.49*	-10*
O=C(O)c1ccc(Cl)c(N2C(=O)C3C4C=CC(C4)C3C2=O)c1 (stereo not drawn)	1	0.72
O=C(CCc1nc(-c2ccccc2F)no1)Nc1cccc(Cl)c1	1	0.033
CCOc1ccccc1NC(=O)CSc1ccc2nnc(-c3ccccc3)n2n1	1	0.4
O=C(NCCc1ccccc1)c1ccc2c(c1)N(Cc1c(F)cccc1Cl)C(=O)CS2	1	2
COc1ccc(-c2c(C(F)(F)F)oc3c(CN4CCCC4)c(O)ccc3c2=O)cc1OC	1	0.42
COCCCNC(=O)c1ccc2c(c1)N(Cc1ccc(C)cc1)C(=O)c1ccccc1S2	0.77	-2.3
COc1ccccc1CNC(=O)c1ccc2c(c1)N(Cc1ccc(F)cc1)C(=O)CS2=O (stereo not drawn)	1	0.14
COc1cc2c(cc1OC)C(C(=O)NC1CCCCCC1)C(c1ccccc1F)N(C)C2=O (stereo not drawn)	0.9	-1.7
CCCCN(C)C(=O)c1ccc2c(c1)N(Cc1ccc(F)cc1)C(=O)c1ccccc1S2(=O)=O	1	0.48
COc1ccc(Cl)cc1NC(=O)c1cnc(Nc2ccc(C)c(Cl)c2)c2ccccc12	1.4	12
O=C(COc1ccc(Cl)cc1)NCc1nnc(SCC(=O)N2CCCCC2)o1	1.2	2.2
CCN(C(=O)c1c(Oc2ccc(F)cc2)nc(C)c(Cl)c1C)c1ccccc1	0.79	-0.21
COc1ccc(NC(=O)CSc2nnc(Cc3cc(=O)[nH]c(=O)[nH]3)n2-c2ccccc2)c(OC)c1	1.1	2.8
Cc1ccc(Cn2c(=O)c3cccnc3n(CC(=O)Nc3ccccc3F)c2=O)cc1	1.1	1.2
O=C(Nc1cccc(-c2nc3ncccc3o2)c1)c1cc(Cl)ccc1Cl	1	0.29
CC(Oc1ccccc1)C(=O)Nc1c2c(nn1-c1ccc(Cl)cc1)CSC2 (stereo not drawn)	1	0.29
CCOc1ccc(NS(=O)(=O)c2cnc[nH]2)cc1	0.9	-1.3

Record cards (already shown):
Shown for O=C(Nc1cccc(-c2nc3ncccc3o2)c1)c1cc(Cl)ccc1Cl = CBX7 AlphaScr: 1; CBX7 AlphaScr z-score: 0.29
Shown for Cc1ccc(Cn2c(=O)c3cccnc3n(CC(=O)Nc3ccccc3F)c2=O)cc1 = CBX7 AlphaScr: 1.1; CBX7 AlphaScr z-score: 1.2
Shown for COCCCNC(=O)c1ccc2c(c1)N(Cc1ccc(C)cc1)C(=O)c1ccccc1S2 = CBX7 AlphaScr: 0.77; CBX7 AlphaScr z-score: -2.3

Following part:
SMILES	CBX7 AlphaScr	CBX7 AlphaScr z-score
COc1ccc(-c2noc(COc3ccc(C)c(C)c3)n2)cc1OC	1.1	0.15
COc1cccc(C2CC(c3cccs3)Nc3ncnn32)c1 (stereo not drawn)	1	0.98
Cc1nc(N2CCCCC2C)c2c3c(sc2n1)CCC3 (stereo not drawn)	1.1	1.3
Cc1cc(C)n(CC(O)COc2ccc(Cl)cc2)n1 (stereo not drawn)	1.1	2.1
CCc1ccccc1NC(=O)c1cc2c(n(-c3ccc(Cl)cc3)c1=O)CC(C)(C)CC2=O	1	2
COCCn1cc(C(=O)NCCCN2CCOCC2)c2c3ccccc3n(C)c2c1=O	1	1
Cc1ccc(NC(=O)c2cnn(-c3ccc(C)c(C)c3)c2C2CCNCC2)cc1C	0.91	-1.6
Clc1ccc2nc(CSc3nc4ccccc4o3)c(Br)n2c1	1	0.45
O=C(COc1ccc(Br)cc1)Nc1nc(-c2ccc(Oc3ccccc3)cc2)cs1	0.77	-1.7
CN(C(=O)c1ccc2c(c1)N(Cc1ccccc1Cl)C(=O)c1ccccc1S2)C1CCCCC1	0.91	-2.5
Cc1ccc(C(=O)Nc2c3c(nn2-c2cccc(C)c2C)CSC3)cc1	1	0.49
O=C(CSc1nc2ncccc2[nH]1)Nc1cccc(C(F)(F)F)c1	1	1.3
CCN(C(=O)c1cn(CC)c(=O)c2cc(OC)c(OC)cc12)c1cc(C)ccc1C	1.4	3.8
Cc1ccc2oc(Nc3ncc(C(=O)Nc4ccccc4C)c(C)n3)nc2c1	1.1	0.28
O=C1CN(C(=O)COc2ccc(Cl)cc2Cl)C(c2ccccc2)c2cc(F)ccc2N1 (stereo not drawn)	0.93	-1.9
O=C(C1CCCN(Cc2ccncc2)C1)N1CCc2ccccc2C1 (stereo not drawn)	0.76	-2.8
OCCn1c(SCCOc2ccccc2)nc2ccccc21	1.2	1.9
CCOC(=O)c1cnc2ccc(OC)cc2c1Nc1ccc(C(=O)O)cc1	1	0.45
CCc1ccc(-c2nc(CN3CCC(C(=O)NC(C)C)CC3)c(C)o2)cc1	0.89	-1.6
CC(CNC(=O)CN1C(=O)COc2ccc(S(=O)(=O)N3CCCCCC3)cc21)c1ccccc1 (stereo not drawn)	1	2
CCOc1ccccc1C1CC(=O)NC2=C1C(=O)CCC2 (stereo not drawn)	1	0.65
COc1ccc(C(=O)Nc2nsc(-c3ccccc3)n2)cc1	1.2	3.6
Cc1nc2c(-c3ccccc3)c(C)nn2c(C)c1CCC(=O)NCCCc1ccccc1	1	1.1
COc1ccc(OC)c(NC2c3ccccc3C(=O)N2c2ccccn2)c1 (stereo not drawn)	0.72	-9.1
O=C(CN1CCN(Cc2cccc(Cl)c2)C1=O)NCc1cccs1	1	0.24
COc1ccc(C(=O)NC(C)C(c2cccs2)N2CCN(C)CC2)cc1OC (stereo not drawn)	1	-0.056
Cc1c(C(=O)NCc2ccccc2)oc2ccc(S(=O)(=O)N3CCC4(CC3)OCCO4)cc12	0.98	-0.15
O=C(Nc1ccccc1-c1nc2ccccc2s1)c1cccc(Cl)c1	1.2	5.1
CCN(c1ccc(F)cc1)S(=O)(=O)c1ccc2[nH]cc(C(=O)NC(C)(C)C)c(=O)c2c1	1.2	1.4
Cc1ccc2nc(NCCC(=O)O)nc(-c3ccccc3)c2c1	0.89	-1.7
COC(=O)c1cc2sc(Cl)cc2n1CC(=O)NCc1ccco1	1	0.39
CC1CCN(S(=O)(=O)c2ccc3c(c2)N(CC(=O)NCCCN2CCOCC2)C(=O)CO3)CC1	1	1.1
COc1ccc(Cc2nnc(NC(=O)c3cccc(NC(=O)C(C)C)c3)s2)cc1	0.98	-0.29
COc1cc(NC(=O)COc2ccc(Cl)cc2Cl)c2ncccc2c1	1&0.99	0.79&-0.23
O=C(c1c(F)cccc1F)N1CCN(c2ccc3nnc(-c4ccccc4)n3n2)CC1	0.86	-1.9
CC1(C)CC(=O)c2cc(-c3ccccc3)n(-c3cccc(C(F)(F)F)c3)c2C1	1	0.26

3 compounds out of the list above, sorted by the number in CBX7 AlphaScr z-score, low to high:
SMILES	CBX7 AlphaScr z-score
Cc1ccc(C(=O)Nc2c3c(nn2-c2cccc(C)c2C)CSC3)cc1	0.49
Cc1nc(N2CCCCC2C)c2c3c(sc2n1)CCC3 (stereo not drawn)	1.3
Cc1cc(C)n(CC(O)COc2ccc(Cl)cc2)n1 (stereo not drawn)	2.1

The list goes on.
SMILES	CBX7 AlphaScr	CBX7 AlphaScr z-score
NS(=O)(=O)c1ccc(CCNC(=O)CSc2nc(NC3CCCCC3)c3ccccc3n2)cc1	0.97	-0.091
COc1ccc(CNC(=O)c2ccc3c(c2)N=C(C)c2c(C)ccc(C)c2S3)cc1	0.91	-2
COc1ccc(Cc2cnc(NC(=O)c3ccc(C)cc3)s2)cc1	1.1	0.75
O=C(NCCc1ccc(Cl)cc1)c1ccc2c(c1)N(Cc1ccccc1)C(=O)CS2	1.1	1.3
Cc1ccccc1Cn1c(=O)c(CCC(=O)NCC2COc3ccccc3O2)nc2ccccc21 (stereo not drawn)	0.87	-1.5
CC1CCCCC1NC(=O)c1ccc2c(c1)N(Cc1ccc(Cl)cc1)C(=O)CS2 (stereo not drawn)	1.1	3.3
COc1ccc(NC(=O)C2(N(C)C(=O)c3ccc(-n4cnnn4)cc3)CCCCC2)cc1	1	0.0087
CCC(C)N(CCNC(=O)CC1Oc2ccccc2NC1=O)C1CCCCC1 (stereo not drawn)	1.1	0.84
CC(C)CCNC(=O)c1ccc2nc(N3CCC(C)CC3)sc2c1	1	-0.0037
C=C(C)Cn1c(C(C)NC(=O)COC)nc2ccccc21 (stereo not drawn)	1.1	1.7
Cc1cc(NC(=O)NC(=O)c2ccc(F)cc2)n[nH]1	1	0.13
COc1cc(N)ccc1-n1c(C)ccc1C	0.75	-3.9
Cn1c(SCC(=O)c2ccc3c(c2)CCCC3)nnc1-c1ccccc1	1.1	1.4
CCN(CCN(C)C)c1ncnc2c1cnn2-c1ccc(Cl)cc1	1	0.11
Cc1ccccc1NC(=O)c1cc2c(n(-c3ccc(Cl)cc3)c1=O)CC(C)(C)CC2=O	0.96	-0.19
CCOc1ccc(-n2nc(C(=O)NCCOC)c3ccccc3c2=O)cc1	0.95	-0.55
CCCOc1ccc(C(=O)Nc2ncc(Cc3ccccc3Cl)s2)cc1	1	0.22
CCOc1ccc(NC(=O)c2c(NCc3cccc(OC)c3OC)sc3c2CCCC3)cc1	0.63	-5.2
O=C1CN(C(=O)c2cccc(Cl)c2)C(c2ccccc2)c2cc(F)ccc2N1 (stereo not drawn)	0.93	-2
O=C(NCc1ccc(F)cc1)c1ccc2nc(N3CCOCC3)sc2c1	1.1	2.8
O=C(CN1CC(c2ccccc2)CC1=O)Nc1ccc2c(c1)OCO2 (stereo not drawn)	0.98	-0.81
O=C(NC1CCCC1)C1c2ccccc2C(=O)N1C1CCCC1 (stereo not drawn)	0.93	-0.71

No new results follow: an excerpt of the list.
SMILES	CBX7 AlphaScr	CBX7 AlphaScr z-score
CCOc1ccc(-n2nc(C(=O)NCCOC)c3ccccc3c2=O)cc1	0.95	-0.55
CCCOc1ccc(C(=O)Nc2ncc(Cc3ccccc3Cl)s2)cc1	1	0.22
CCOc1ccc(NC(=O)c2c(NCc3cccc(OC)c3OC)sc3c2CCCC3)cc1	0.63	-5.2
